NPYLR7 ag: agonists of mosquito NPYLR7 receptor, primary screen, cell-based, Aedes aegypti, calcium fluorescence, mosquito biting behavior; 270,000 compounds, 0.15% hits; activation, % at 10 µM; HEK293T NPYLR7/Galpha15, GCaMP6s calcium fluorescence; Aedes aegypti neuropeptide Y-like receptor 7 (NPYLR7); in the data active means activation above about 40%;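 further: 0% = vehicle and 100% = reference agonist at the receptor; some compounds past the cut are filed as inactive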
NPYLR7 ag max-min: second read-out of NPYLR7 ag, no call of its own (marks repeat the call); activation, %; measured here: Max-Min RFU normalised activation; some inactives read as strong as hits;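 span of the calcium signal over five minutes; 0% = vehicle and 100% = native peptide agonist; compound fluorescence can raise it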
* marks the source's active call; other numbers are inactive results; & = joins results of further samples. This is a subset; the hit share may differ from the screen's.

SMILES | NPYLR7 ag | NPYLR7 ag max-min
C=CCCC(O)CN(Cc1ccc(OC)cc1)Cc1cccc(C)c1 (stereo unspecified) | -1 | 8
COc1cc2cc(CN3CCCC(CO)(CO)C3)c(=O)[nH]c2cc1OC | 14 | 8
COCc1ccc(C(=O)N2CCCC(O)(CO)CC2)s1 (stereo unspecified) | 3 | 2
COC(=O)[C@@H]1C[C@@H](NC(=O)c2sc(C(C)C)nc2C)CN1C | -4 | -4
CC(C)c1nc(CN2CCCN(C3CCOC3=O)CC2)no1 (stereo unspecified) | 8 | 6
O=c1ccc(-c2ccc(S(=O)(=O)NC3CCCCC3)s2)n[nH]1 | 3 | 0
CCCCCC(=O)N(Cc1ccc(OS(C)(=O)=O)cc1)CC1CCCO1 (stereo unspecified) | -1 | 5
CC(C)CC1=NN(C(=O)c2cccc(Br)c2)C(O)(C(F)(F)F)C1 (stereo unspecified) | 0 | 3
CN1CCN(CC(=O)Nc2ccccc2C2COC(=O)C2=N)CC1 (stereo unspecified) | 10 | 6
CNCc1cc(-c2ccc(OC)c(Cl)c2)ccc1OC | 8 | 16
COc1ccccc1-c1cn2c(C(=O)N3CCC(N4CCSCC4)CC3)csc2n1 | 10 | 4
Cc1ccc(-c2nccn2CCc2nc3ccccc3[nH]2)o1 | -3 | -7
Cc1ccc(NC(=O)CSc2nc(=O)n3cc(Cl)ccc3n2)cc1 | 6 | 5
COc1ccc(Cl)cc1NC(=O)Cn1nc(C2CC2)c2cnn(-c3ccccc3)c2c1=O | 6 | 2
Cc1ccc(CNc2cccc(C(=O)NC(C)Cc3cccnc3)c2)s1 (stereo unspecified) | 13 | 7
CCCCN(CC#Cc1ccccc1)C(=O)c1ccoc1 | 4 | 2
O=C(Nc1cc(Cl)c(Cl)cc1Cl)c1cccn(OCc2ccc(F)cc2)c1=O | 4 | 2
COc1ccc(NC(=O)CN(C)CC(=O)Nc2ccc3c(c2)OCCCO3)cc1 | 0 | 14
CN1CCN(Cc2ccc(-c3ccc(C(N)=O)cc3)nc2)CC1 | 4 | 2
Cc1cc(OCC2CN(C(=O)C(C)Oc3ccccc3Cl)CCO2)ccc1Cl (stereo unspecified) | 13 | 10
CC(C)Cc1nc(N2CCCN(C(=O)/C=C/c3ccccc3)CC2)c2c(-c3cccc(C(F)(F)F)c3)noc2n1 | 13 | 8
C=CCNC(=O)CSc1nc2sc3c(c2c(=O)[nH]1)CCCC3 | -3 | -6
CC(Sc1ncc(-c2ccc(F)cc2)o1)C(=O)N(C)C (stereo unspecified) | 3 | -1
COc1ccccc1/C=C/C1=NC(=C\c2cccc([N+](=O)[O-])c2)/C(=O)O1 | -3 | -7
C#Cc1cccc(NC(=O)CNC(=O)c2ccc(=O)n(CCOC)n2)c1 | 11 | 6
CCNC(=O)N1CCCC(OCc2cccc(OC(F)(F)F)c2)C1 (stereo unspecified) | 6 | 7
CC(NC(=O)C1CC2CCCC(C1)C2=O)c1ccc2c(c1)OCCCO2 (stereo unspecified) | 1 | -4
CN1CC(=O)N(CCCC(=O)Nc2ccc(OCc3ccccc3)cc2)C1=O | 10 | 4
Cc1[nH]nc(C2NCCc3[nH]cnc32)c1Cl (stereo unspecified) | 8 | 6
Cc1ccsc1C(=O)N1CCC1(C)C(=O)NCc1cccc2ccccc12 (stereo unspecified) | 8 | 6

Looked up above:
In NPYLR7 ag, `COc1ccccc1/C=C/C1=NC(=C\c2cccc([N+](=O)[O-])c2)/C(=O)O1` is entered as -3
In NPYLR7 ag max-min, `CCCCN(CC#Cc1ccccc1)C(=O)c1ccoc1` is entered as 2
In NPYLR7 ag, `Cc1[nH]nc(C2NCCc3[nH]cnc32)c1Cl` (stereo unspecified) is entered as 8

Part of the list above in order of number of heavy atoms, highest first.
SMILES | NPYLR7 ag | NPYLR7 ag max-min
CC(C)Cc1nc(N2CCCN(C(=O)/C=C/c3ccccc3)CC2)c2c(-c3cccc(C(F)(F)F)c3)noc2n1 | 13 | 8
COc1ccc(Cl)cc1NC(=O)Cn1nc(C2CC2)c2cnn(-c3ccccc3)c2c1=O | 6 | 2
COc1ccccc1-c1cn2c(C(=O)N3CCC(N4CCSCC4)CC3)csc2n1 | 10 | 4
C#Cc1cccc(NC(=O)CNC(=O)c2ccc(=O)n(CCOC)n2)c1 | 11 | 6
Cc1ccc(NC(=O)CSc2nc(=O)n3cc(Cl)ccc3n2)cc1 | 6 | 5
COC(=O)[C@@H]1C[C@@H](NC(=O)c2sc(C(C)C)nc2C)CN1C | -4 | -4
Cc1[nH]nc(C2NCCc3[nH]cnc32)c1Cl (stereo unspecified) | 8 | 6

Next section
SMILES | NPYLR7 ag | NPYLR7 ag max-min
Cc1cnc(NC(=O)c2csc3c2CCCC3)s1 | 1 | 17
CN(C)c1nc(N)c2c(N)nc3c(cc(O)n3C(=O)NC34CC5CC(CC(C5)C3)C4)c2c1C#N | 3 | 7
Cc1nnc(-c2cc3ccccc3[nH]2)o1 | -4 | -4
O=C(Nc1cnn(CC2CCCO2)c1)c1nn(-c2ccc(F)cc2)c2c1CCC2 (stereo unspecified) | -4 | -4
c1cc(-c2cc3ccccc3o2)cc(-n2cnnc2)c1 | -5 | -3
O=C(O)[C@@H]1C[C@@H](C(=O)O)N1 | 4 | -2
COc1ccc(-n2c(C)cn3c4c(=O)n(CC(C)=O)c(=O)n(C)c4nc23)c(OC)c1 | -1 | 2
CN(C)C(=O)Cn1cnc(NC(=O)NCCc2ccccc2F)n1 | 10 | 8
COc1ccc(C2C(C(=O)OC(C)C)=C(C)NC3=C2C(=O)CC(c2ccccc2)C3)c(OC)c1 (stereo unspecified) | 6 | 3
CCn1c(SCC(=O)Nc2cccc3ccccc23)nc2c(c1=O)SCC2 | -2 | -3
CC(C)CNC(CC(=O)Nc1ccccc1)C(=O)O (stereo unspecified) | 1 | 4
CON(C)c1nc(NCC(C)C)nc(OCC#N)n1 | 5 | 4
CCOC(=O)CC(=O)N1CC(=O)N2CCc3cc(OC)c(OC)cc3C2C1 (stereo unspecified) | 36 | 33
COc1ccccc1-c1ccc(=O)n(CC#N)n1 | 9 | 3
CCNC(=O)C1(C)CCCN1C(=O)COc1ccc(Cl)cc1 (stereo unspecified) | 3 | 1

Overlap with the part before: four entries, followed by the next part.
SMILES | NPYLR7 ag | NPYLR7 ag max-min
CON(C)c1nc(NCC(C)C)nc(OCC#N)n1 | 5 | 4
CCOC(=O)CC(=O)N1CC(=O)N2CCc3cc(OC)c(OC)cc3C2C1 (stereo unspecified) | 36 | 33
COc1ccccc1-c1ccc(=O)n(CC#N)n1 | 9 | 3
CCNC(=O)C1(C)CCCN1C(=O)COc1ccc(Cl)cc1 (stereo unspecified) | 3 | 1
CCN1CCN(c2oc(-c3ccc(COc4ccc(OC)cc4)o3)nc2C#N)CC1 | 0 | 6
COC(=O)c1c(-c2ccccc2)c(-c2ccccc2)nn(C)c1=O | -3 | -3
O=C(NCc1ccccc1Cl)c1ccc(S(=O)(=O)N2CCCC2)o1 | 39 | 38
CCCCc1cnc2c(c1SCC(N)=O)c(=O)n(C)c(=O)n2C | 3 | 7
CN(CCOc1ccccc1)C(=O)c1cc(COc2c(F)cccc2F)on1 | 6 | 11
O=C(N[C@H]1CCN2C(=O)[C@@H]3[C@H](OCC4CC4)CCN3C(=O)[C@H]12)C1CCC1 | -10 | -18
COC(=O)COc1ccc2c(=O)c(Oc3ccc(OC)cc3)coc2c1 | 4 | 1
CC(=O)OCC(=O)[C@@]1(O)CC[C@H]2[C@@H]3C[C@H](C)C4=CC(=O)C=C[C@]4(C)[C@H]3[C@@H](O)C[C@@]21C | 0 | -5
COc1ccc(NC(=O)c2nn3c(C(F)(F)F)cc(-c4ccccc4)nc3c2Br)c(OC)c1 | -4 | -8
COc1ccc(-c2noc(C3CC(C(C)C)=NO3)n2)c(OC)c1 (stereo unspecified) | -5 | -9
CCOc1nc(-c2ccccc2C)n(-c2ccc(NC(=O)c3ccc([N+](=O)[O-])cc3)cc2)n1 | -6 | -5
Nc1nnc(CS(=O)(=O)c2ccc(Cl)cc2)o1 | 16 | 9
O[C@@H]1CN(c2ncccc2Cl)CC[C@H]1c1ccc2c(c1)OCO2 | 13 | 7
COc1cccc(Cn2cccc2CN(Cc2ccccc2)C(=O)CN(C(C)=O)C(C)C)c1 | -7 | -5
CC(C)N1CCC1(C)C(=O)Nc1cccc(F)c1 (stereo unspecified) | -9 | -8
O=C(O)c1ccc(CN2CC(c3cccnc3)C2)cc1 | -1 | 12
O=P1(Nc2ccc(SC(F)F)cc2)C=C(c2ccccc2)OC(c2ccccc2)=C1 | -5 | -6
CSc1nc(C)cc(Oc2ccc(=O)n(-c3ccccc3)n2)n1 | -1 | -2
Nc1nc(CSc2nncs2)nc(Nc2ccccc2)n1 | -7 | -6
CCOC(=O)c1ccc(CSc2nc3cc(S(=O)(=O)N4CCCC(C)C4)ccc3n2C2CCCC2)cc1 (stereo unspecified) | 4 | 3
Cc1cc2nc(N(Cc3cccnc3)C(=O)c3ccc(S(C)(=O)=O)cc3)sc2cc1C | -5 | -8
O=C(NC(C1CC1)C1CC1)C1CCN(c2ccc(S(=O)(=O)N3CCOCC3)cc2[N+](=O)[O-])CC1 | -4 | -7
O=S(=O)(Nc1ccc(NS(=O)(=O)c2ccc(Cl)cc2)c(Cl)c1)c1ccc(Cl)cc1 | -1 | -3
Cn1cnnc1C1CCCN(C(=O)c2cc(C3CC3)nn2C(C)(C)C)C1 (stereo unspecified) | 3 | 1
N#CC1(c2ccccc2)CCN(C(=O)C2CCCCC2C(=O)NCC(c2ccccc2)c2ccccc2)CC1 (stereo unspecified) | -6 | -13
COc1ccc(-c2cccc(-c3ccc(NC(=O)c4cccc(Cl)c4)cc3)n2)cc1 | 17 | 18
Cc1ccc(CCNC(=O)NC2CCN(CC(F)(F)F)C2=O)cc1 (stereo unspecified) | 7 | 5
CCCCCNC(=O)C1CCN(C(=O)c2oc3ccc(Cl)cc3c2C)CC1 | 9 | 7
Cc1ccc(Nc2nc(-c3ccccc3)nc(Cl)c2N)cc1 | 8 | 2
Cc1cccc(-c2n[nH]c(=S)n2C2CCCCC2)c1 | -2 | 8
CCOc1ccccc1C(=O)NCc1cccc(-c2ncc(-c3cc(OC)ccc3OC)[nH]2)c1 | -2 | 0
O=C(C=Cc1ccco1)Nc1ccc(S(=O)(=O)Nc2ccccc2)cc1 | -1 | 6
CC1(C(=O)N2CCN(C(=O)c3ccco3)CC2)CCN1CCc1ccccc1 (stereo unspecified) | 12 | 3
CN(C)c1nc(N)nc(Nc2ccccc2C#N)n1 | -10 | -16
COc1ccccc1N1CCN(c2ncccc2CNC(=O)c2cnc[nH]2)CC1 | 1 | -2
O=C1CCc2cc(Cl)c(S(=O)(=O)N3CCCC3c3ccc4c(c3)OCCCO4)cc2N1 (stereo unspecified) | 8 | 3
Cc1ccc(-c2ccc(=O)n(Cc3ccccc3F)n2)cc1 | 10 | 5
CCOC(=O)c1ccccc1NC(=O)N1CCC(Cc2ccc(C(F)(F)F)cc2)CC1 | -1 | -7
CC(=O)NC1=NN(C(C)=O)C2(CCCCC2)S1 | 2 | 1
COc1ccc(S(=O)(=O)N2CCCC(C)C2)cc1N1CCN(S(=O)(=O)c2cccc(C#N)c2)CC1 (stereo unspecified) | 3 | -2
Cc1cnccc1CN(C)C(=O)c1ccc(C#CC(C)(C)O)o1 | 30 | 22
CN(C(=O)c1cc2ccccc2s1)C(C(N)=O)c1cccc(F)c1 (stereo unspecified) | 11 | 7
CN(Cc1cc(-c2ccccn2)no1)C1CCC2(CCNCC2)CC1 | 4 | 0
Cc1nc(-n2cccc2)sc1C(=O)N1CCC(NC(=O)OC(C)(C)C)CC1 | 2 | -2
CCN(C(=O)c1ccc2nc(C)[nH]c2c1)C1CCS(=O)(=O)C1 (stereo unspecified) | 6 | 5
Cc1cnccc1NC(=O)C(C)SCc1ccccc1 (stereo unspecified) | 3 | -1
COC(=O)C1=C(O)/C(=C\c2ccc(O)c(C)c2)SC1=Nc1ccccc1OC | -6 | 1
C#CCSc1nnc(-c2cn(C)nc2OC)n1C | 8 | 10
Cc1c(/C=N\N2C(=O)C3C4C=CC(C5CC45)C3C2=O)c2ccccc2n1Cc1ccccc1Cl (stereo unspecified) | -12 | -17
COc1ncccc1-c1cc2c(cn1)nc(NCc1cccc(C)c1)n2C | 17 | 9
COCCNC(=O)c1cc(-c2ccc(C)cc2)nc2cc(C(C)(C)C)nn12 | -4 | 4
CCOC(=O)C1=C(CC)NC2=C(C(=O)CC(C)(C)C2)C1c1cccc([N+](=O)[O-])c1 (stereo unspecified) | 3 | 3
Cc1nc2ncccn2c1C(=O)N[C@H]1C[C@H]2C(=O)N(C)CC(=O)N2C1 | -1 | 3
CC(c1ccccc1)N(C)C(=O)CN1CC(C(N)=O)Cc2ccccc21 (stereo unspecified) | -11 | -12
Cn1c(=O)[nH]c(=O)c2c1nc(Sc1nc3ccccc3[nH]1)n2Cc1ccc(Cl)cc1 | 0 | 18
Cc1nc(CNC(C)COc2ccccc2)cs1 (stereo unspecified) | 1 | 4
CC1CCN(c2nc3c(c(=O)[nH]c(=O)n3C)n2CCCc2ccccc2)CC1 | -1 | 29
CCSc1nnc(NC(=O)CCc2c(C)nc3nc(SC)nn3c2C)s1 | 21 | 19
Cn1ccnc1C(NC(=O)c1cccc(S(=O)(=O)N2CCCCC2)c1)c1cccc(F)c1 (stereo unspecified) | -2 | -7
Cc1sc2ncnc(N)c2c1C | 1&5 | 1&4

(cont.)
SMILES | NPYLR7 ag | NPYLR7 ag max-min
CCNC(=O)C(C)n1cnnc1C#N (stereo unspecified) | 7 | 3
CC(=O)CCc1c(C)[nH]c2ccc(C)cc2c1=S | 8 | 6
Cc1nn(C)c(C)c1-c1ccnc(NC2CCN(Cc3cccnc3)CC2)n1 | 4 | 2
COc1ccccc1C(=O)Nc1ccc(C2SCC(=O)N2c2ccc3c(c2)OCO3)cc1 (stereo unspecified) | -3 | -1
Cc1csc(SCc2cc(=O)c(OC(=O)c3c(F)cccc3Cl)co2)n1 | -2 | -6
CCC1CCCCN1S(=O)(=O)c1ccc2c(c1)CCC(=O)N2 (stereo unspecified) | -4 | -5
Cc1nc2nc(S(=O)(=O)N3CCOCC3)nn2c(C)c1C | 9 | 9

Assay outcomes: PubChem, Fisher Drug Discovery Resource Center
